T cruzi inh = blocks replication of Trypanosoma cruzi; hit rate 1.4% among 300,000; inhibition, % (no concentration beside the values); AID 1885; T. cruzi beta-gal in NIH3T3, luminescence, 90 h;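 active = mean inhibition across valid replicates above about 55%, limit read from the data; inconclusive = mean below that limit but half or more replicates reach it; inactive = mean below it, under half of replicates reach it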;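 note: signal also drops with host cell toxicity which is not excluded here; 0% = plate median of DMSO wells and 100% = zero luminescence signal; higher percent means less beta-gal luminescence so fewer parasites; stock transfer was 50 nL into about 50 µL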
A1 inh = inhibitors of the anti-apoptotic protein A1, read as caspase activation; caspase activation, % (test concentration not listed); hit rate 0.066% among 330,000; MEF A1-2A-BIM cells, Caspase-Glo 3/7 luminescence, 3 h; percent of clofoctol response, vehicle zero;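 active = over half of replicate activation scores above 10%, or exactly half above 10 with the replicate mean above 10; inconclusive = replicate mean below 10 yet half the replicates above 10; inactive = over half of replicates below 10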;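 note: wells of about 30 µL received 50 nL stock; many hits fall short of the cut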
Calb FLC = affects C. albicans growth with fluconazole | growth inhibition, % (concentration not given with the values) | AID 1979 | C. albicans CaCi-2 (fluconazole-resistant clinical isolate) + fluconazole, Alamar Blue growth, 48 h | hit rate 0.57% among 300,000;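 active = most replicates above 75%; inconclusive = exactly half above 75%; inactive = most below 75%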;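 note: all wells also contain fluconazole at 8 µg/ml as a sub-toxic cotreatment; 0% = median of DMSO wells and 100% = median of geldanamycin control wells; wells of about 8 µL received 7.5 nL stock; the first replicate is given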
Ecoli rRNA inh = inhibitors of bacterial rRNA selective over humanized ribosomes; E. coli WT GFP vs humanized-ribosome RFP mutants, fluorescence, 24 h; stronger effect = lower value; DMSO median 0, no signal -100; GFP signal change (wild-type ribosome), % (no concentration beside the values); hit rate 1.6% among 350,000; AID 720706;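 active = significant combined selectivity score with lowered wild-type GFP, culture density cut under 30%, mutant RFP and density less affected; inactive = any of these conditions unmet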; note: one replicate is shown; some compounds called inactive have numbers as strong as hits
AF4-AF9 inh = MLL-AF4/AF9 protein interaction inhibition | AlphaScreen, biotin-AF4 peptide binding to FLAG-AF9 | P42568 | inhibition, % at 10 µM | hit rate 0.47% among 350,000;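 active = every replicate reaching a set inhibition limit, whatever the replicate mean, cut at about 25% in these data; inconclusive = mean inhibition reaches that limit but some replicates miss it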;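 note: 0% = plate neutral control median and 100% = total signal loss; the record names both 10 and 1 µM as test concentration; the first replicate is given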
Target sequence (P42568 whole entry, looked up): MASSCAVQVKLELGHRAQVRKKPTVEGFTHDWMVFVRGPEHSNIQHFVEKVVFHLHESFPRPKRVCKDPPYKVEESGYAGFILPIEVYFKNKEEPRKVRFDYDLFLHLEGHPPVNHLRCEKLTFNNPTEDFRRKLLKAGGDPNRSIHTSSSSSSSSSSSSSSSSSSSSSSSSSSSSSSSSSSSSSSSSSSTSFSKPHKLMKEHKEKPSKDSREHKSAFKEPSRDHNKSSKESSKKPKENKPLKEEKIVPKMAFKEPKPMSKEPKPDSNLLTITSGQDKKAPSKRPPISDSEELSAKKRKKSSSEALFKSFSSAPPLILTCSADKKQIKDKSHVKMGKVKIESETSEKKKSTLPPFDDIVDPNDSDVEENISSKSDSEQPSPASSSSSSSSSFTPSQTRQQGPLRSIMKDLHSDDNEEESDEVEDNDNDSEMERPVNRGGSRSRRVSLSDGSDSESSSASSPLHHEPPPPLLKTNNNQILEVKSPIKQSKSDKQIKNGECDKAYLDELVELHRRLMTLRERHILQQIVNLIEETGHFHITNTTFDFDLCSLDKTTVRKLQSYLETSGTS
RanGTP-Imp inh = disruptors of Ran-importin-beta complex formation – biochemical, FRET, CFP-Ran, YFP-importin-beta, homogeneous, primary screen | cell-free CFP-Ran/YFP-importin-beta FRET ratio | inhibition, % (test concentration not listed) | hit rate 1.1% among 300,000;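 active = most replicates above 15%; inconclusive = exactly half above 15%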;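 note: 0% = DMSO wells and 100% = Ran loaded with GDP instead of GTP; wells of about 40 µL received 100 nL stock; the first replicate is given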
Beta cell apopt = beta cell apoptosis inhibition; INS-1E cytokine-induced death, ATP luminescence, 48 h; percent of positive-control rescue, neutral wells zero; protection from apoptosis, % (concentration not given with the values); hit rate 0.8% among 300,000;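 active = all replicates at 75% or more, or half of them and the mean; inconclusive = half reach 75% but not the mean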;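 note: 0% = cytokine-treated negative control wells and 100% = positive control rescue; higher means more ATP so stronger rescue from cytokine killing; wells of about 40 µL received 100 nL stock; the first replicate is given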
Vif A3G = inhibitors of Vif binding to APOBEC3G peptide, primary screen, biochemical, TR-FRET, GST-Vif 1-94, biotin-A3G peptide, dose response retest (AID 1117319). TR-FRET GST-Vif / biotin-A3G peptide binding; higher % means a stronger effect; test concentration not given here; strong numbers were not always called active. inhibition, %; hits with a dose series show IC50 in µM. hit rate 0.57% among 260,000;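 active = above the screen mean plus three standard deviations and confirmed in dose response; inconclusive = results disagree or hit not tested in dose response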;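 note: Vif residues 1-94 fused to GST binding biotinylated APOBEC3G peptide 110-148; 0% = full assay without inhibitor and 100% = GST in place of GST-Vif; retest series ran down from 100 µM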
Ecoli rRNA inh OD600 = also measured in Ecoli rRNA inh; calls as there; OD600 change, %; measured here: OD600 growth;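 optical density of the mix in the first replicate; 0 = DMSO median and -100 = no signal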
Ecoli rRNA inh RFP = further read-out of Ecoli rRNA inh, marked with its call; RFP signal change, %; measured here: RFP humanized mutant strains;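 first replicate; 0 = DMSO median and -100 = no signal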
Numbers without * were called inactive; ? = inconclusive; nt = no result given; & = joins results of further samples. Some of the compounds tested. The share of hits here may be higher or lower than overall.

SMILES	T cruzi inh	A1 inh	Calb FLC	Ecoli rRNA inh	Ecoli rRNA inh OD600	Ecoli rRNA inh RFP	AF4-AF9 inh	RanGTP-Imp inh	Beta cell apopt	Vif A3G
O=C(O)c1ccc(Nc2nc(-c3ccc([N+](=O)[O-])cc3)nc3ccccc23)cc1	-6	0.3	45	-21*	7.0*	-6.5*	1.6	0.7	4	9%
COc1cn(-c2ccccc2)nc1C(=O)Nc1ccc(C)cc1	8	1.1	7	-49	-76	-20	0.7	2.6	3	-5%
Cc1cccc(C)c1NC(=O)CSc1nnc(-c2ccncc2)n1Cc1ccco1	-12	0.3	3	3	-5	-5.0	-39	-1.6	-8	11%
O=c1c(F)cn(C2CCCO2)c(=O)n1Cc1ccc(Cl)cc1 (stereo not given)	0	-0.4	-1	4	-2	2.1	2.7	2.8	1	nt
CC1CCCC(NC(=O)CNC(=S)N(Cc2ccccc2)Cc2cccs2)C1C (stereo not given)	53	0.9	-17	-14	-7	4.3	1.4	-1.9	10	nt
O=C(COC(=O)CCc1ccc(S(=O)(=O)N2CCOCC2)cc1)NCc1ccc(Cl)cc1	-10	0.3	-5	-13	-8	-2.0	-0.3	-1.5	nt	6%
COc1cccc(C(=O)N2CCN(Cc3ccccc3C(F)(F)F)CC2)c1	5	0.8	-19	nt	nt	nt	nt	1.4	-4	9%&2%
CCSc1nnc(NC(=O)Cc2ccc(OC)cc2)s1	-5	0.3	nt	nt	nt	nt	nt	-2.4	-7	-4%
CCOC(=O)C1CCCN(Cc2cn(C)nc2-c2ccc3c(c2)OCCO3)C1 (stereo not given)	9	0.4	-17	-5	1	-1.1	0.0	-2.2	-2	1%
CC(C)N=C(NC#N)SCC(=O)NC(C)(C)C	3	1.4	1	nt	nt	nt	nt	1.4	0	-3%
CCOc1ccc(NC(=S)C(C#N)=C2N(C)c3ccccc3N2C)cc1	-9	-0.2	29	7	2	2.9	-2.2	3.0	2	nt
O=C1C=C(NCCN2CCOCC2)CC(c2ccccc2)C1 (stereo not given)	-10	-0.3	-3	4	9	0.9	7.0	2.6	-10	-2%
O=S(=O)(c1ccc(Br)s1)N1CCN(CCOc2ccccc2)CC1	nt	0.9	nt	-26	-28	-3.7	3.1	nt	-3	-7%
CCOC(=O)C1=C(CNCc2ccc(C)cc2)NC(=O)NC1c1ccc(OC)cc1 (stereo not given)	8	0.2	1	nt	nt	nt	nt	1.4	1	16%
Cc1cc(NC(=O)c2ccc(Cl)cc2)cc(C)c1OCC(=O)N1CCOCC1	1	0.0	-4	-3	1	-0.8	-0.1	0.5	-3	nt
CCOc1cc(C(N)=O)cc(Br)c1OCc1ccccc1	9	-0.7	27	-36	-54	-2.6	-1.1	-0.4	3	nt
CN(CC(=O)Nc1cccc(F)c1)C(=O)Cc1n[nH]c(=O)c2ccccc12	24	-1.0	nt	4	17	0.2	-8.7	1.4	-1	-4%
CCCCSc1nnc(CCC)n1N	-18	-0.4	15	nt	nt	nt	nt	-1.6	-6	21%
CC(C)[C@H](CO)Nc1nc(NCc2ccc(S(N)(=O)=O)cc2)c2ncn(C(C)C)c2n1	-1	-0.8	-9	10	17	5.6	nt	0.5	-16	-1%
Cc1oc(/N=C/c2ccc(F)cc2)c(C#N)c1C	-3	-0.2	5	7	12	11	-0.6	-1.9	7	4%
CCn1c(SCC(=O)NC2CCCC2)nnc1C(C)NC(=O)c1ccccc1F (stereo not given)	-2	1.6	8	7	9	1.6	-1.9	4.2	3	6%
CCOC(=O)c1c(C)[nH]c(C(=O)CN2C(=O)NC(C)(c3ccc(C)cc3)C2=O)c1C (stereo not given)	12	0.7	20	nt	nt	nt	nt	4.8	1	nt
COc1cccc(N=C2CC(C)(C)CC(=O)/C2=C(/O)c2ccccc2)c1	10	0.0	8	-7	-17	3.7	1.8	-2.4	-1	-7%
Cc1cccn2c(=O)nc(SCC(=O)NCCc3ccccc3)nc12	-11	-0.5	3	4	-3	2.3	-0.3	0.1	0	-10%
CC1C(=O)CCC1(C(=O)O)c1ccccc1 (stereo not given)	-18	0.2	4	nt	nt	nt	nt	3.0	-5	7%
O=C(c1cc2c(s1)CCCC2)n1cccn1	12	0.0	1	-8	-11	1.6	-10.0	-2.5	-5	-5%
Cc1ccc(CS(=O)(=O)c2ncc(Cl)c(C(=O)Nc3ccc(OC(F)F)cc3)n2)cc1	-22	?	-2	12	16	1.5	0.3	-0.9	41	nt
CN(C)CC(c1ccccc1)c1ccccc1	-3	0.3	-3	nt	nt	nt	-3.4	-4.3	nt	-3%
COc1ccc(OC2OC3COC(C)(C)OC3C(O)C2NC(C)=O)cc1 (stereo not given)	-8	0.5	-34	nt	nt	nt	nt	-0.2	2	-10%
Cc1cc(NS(=O)(=O)c2ccc3c(c2)OCCO3)no1	-4	-0.1	-3	-3	1	-3.0	-9.4	2.6	-5	2%
Cc1cc(C(=O)N2CC(C)CC(C)C2)n(-c2ccccc2)n1 (stereo not given)	-13	-0.1	12	nt	nt	nt	-8.8	-1.3	nt	-2%
CCc1ccc(CCC(=O)Nc2sc3c(c2C#N)CCCC3)o1	-30	-0.1	-13	nt	nt	nt	nt	3.8	-16	24%
O=C(N/N=C/c1ccc(F)cc1)c1cccc(NC(=O)c2ccccc2Cl)c1	-5	1.3	12	-14	-10	2.5	4.0	0.0	10	-2%
CCn1c(NC)cc(=O)n(C)c1=O	-8	0.0	2	nt	nt	nt	nt	14	-2	nt
CCCc1cc(=O)oc2cc(OC(C)C(=O)NCCCn3ccnc3)ccc12 (stereo not given)	-13	-0.2	-4	8	11	-3.9	-3.2	1.2	-4	nt
CCCCN(CCCNC(=O)c1ccc(CS(=O)(=O)c2c(Cl)cccc2Cl)o1)Cc1ccccc1	5	0.5	3	2	-7	10	5.1	6.6	-1	nt
O=C(CSc1nnc(NC(=O)Cc2ccccc2)s1)NCc1ccco1	3	0.1	-14	1	9	0.3	-2.5	2.2	-6	4%
CCCCn1c(N)c(N(CCC(C)C)C(=O)c2ccccc2C)c(=O)[nH]c1=O	-12	0.5	8	12	19	1.9	-0.9	-5.4	-8	nt
Cc1cccc(C(=O)c2ccccc2C(=O)O)c1	-2	0.0	-11	-3	-8	-1.8	-3.3	-1.8	-6	-1%
Cc1cc(C)c(S(=O)(=O)NCCCN2CCOCC2)cc1Br	8	0.1	13	nt	nt	nt	nt	?	-4	?
CC1(C)C2CCC1(CS(=O)(=O)NCc1ccc(S(N)(=O)=O)cc1)C(=O)C2 (stereo not given)	-2	0.1	-2	18	10	0.4	-1.8	0.1	-9	7%
O=c1ccc(-c2n[nH]c(=S)n2-c2ccc(F)c(Cl)c2)n[nH]1	0	-0.4	5	11	6	1.5	-8.0	5.9	0	-3%
COc1ccc(NC(=O)/C=C/c2ccc(F)cc2)cn1	-16	-0.9	-8	4	5	-4.3	2.0	-3.6	2	-2%
CCOc1ccc(C(=O)Nc2ccc3c(c2)OCCO3)cc1	-10	-7.4	2	2	21	-0.4	-2.0	0.9	3	nt
O=Nc1[nH]c(=O)c(/C=C(\O)c2ccccc2)nc1NO	-10	-8.3	-1	57	-23	8.2	5.8	2.6	3	nt
COc1cc(C(=O)Nc2cccc(-c3nc4cc(C)ccc4o3)c2C)cc(OC)c1OC	16	2.3	nt	nt	nt	nt	nt	5.6	26	-5%
O=C(Nc1cc(Cl)ccc1N1CCOCC1)C1=COCCO1	1	1.2	1	2	1	-0.2	-0.2	4.0	-8	-1%
CC1CCCCC1NC(=O)CN1CCC(NC(=O)c2cccc(F)c2)CC1 (stereo not given)	21	0.9	-20	0	2	0.5	-7.3	0.3	1	nt
Cc1ccc(NC(=O)C2CCN(S(=O)(=O)c3cccnc3)CC2)cc1C	3	-0.9	-2	-6	-10	-3.5	6.9	-1.7	nt	nt
Cc1[nH]c2ccccc2c1/C=N/NC(=O)CNC(=O)c1ccccc1	5	-0.9	2	6	8	3.8	nt	2.5	-4	3%
CCCCN1C(N)=NC[C@H]1Cc1ccc(O)cc1	-9	-0.4	14	7	2	-6.4	9.3	-2.0	-9	nt
Cc1c(Cl)cccc1NS(=O)(=O)c1cccc2nsnc12	1	1.0	13	-9	-19	1.5	-0.9	-0.9	-9	4%
Cc1nc2ccccc2c(=O)n1/N=C/c1ccc([N+](=O)[O-])o1	46	1.6	-1	nt	nt	nt	nt	0.7	14	nt
CSc1nc(-c2ccccc2)nn1S(=O)(=O)c1ccc(Cl)cc1	-1	0.7	5	nt	nt	nt	nt	-2.4	-2	4%
Cc1cccc(NC(=O)c2ccc(C)c(S(=O)(=O)N3CCCCC3)c2)n1	22	-2.1	-11	-13	-13	4.2	0.9	-1.3	-2	3%
CCN(c1cccc(C)c1)S(=O)(=O)c1ccc2c(c1)N(C(C)=O)CCS2	5	nt	-4	-35	-34	-5.5	-1.3	1.9	nt	nt
COc1ccc(-c2ccc3oc(-c4ccc(OC)cc4)c(C#CCO)c3c2)cc1	33	-1.7	-7	7	-1	-4.1	0.7	0.8	26	nt
CCN1C(=NCC2CC2)N[C@@H](c2cccc(C(F)(F)F)c2)C(C(=O)OC)=C1C	43	0.1	-9	nt	nt	nt	nt	3.4	7	nt
O=C(CN1C(=O)NC2(CCCCCCC2)C1=O)Nc1cccc(Br)c1	nt	0.1	nt	4	-31	3.8	-3.4	nt	-5	nt
CCCN(C(=O)CSCc1c(C)noc1C)c1c(N)n(Cc2ccccc2)c(=O)[nH]c1=O	-5	-1.5	7	0	-1	2.1	-2.2	1.9	-1	3%

Next compounds follow:
SMILES	T cruzi inh	A1 inh	Calb FLC	Ecoli rRNA inh	Ecoli rRNA inh OD600	Ecoli rRNA inh RFP	AF4-AF9 inh	RanGTP-Imp inh	Beta cell apopt	Vif A3G
Oc1ccc(Cl)cc1CNCc1ccc(Cl)cc1	nt	-0.5	nt	-2	5	2.6	-0.7	nt	-7	nt
CCOCCCNS(=O)(=O)c1ccc2c(c1)CCN2C(C)=O	-6	1.9	-6	nt	nt	nt	nt	-4.3	-4	2%
Cn1cccc1/C=C1\SC(=S)N(NC(=O)c2cccc(Cl)c2)C1=O	nt	-0.1	nt	-20	-23	-8.1	14	nt	5	21%
O=C(NC(=S)Nc1ccccn1)c1ccccc1	-6	-8.9	-1	-3	5	0.4	-2.9	7.4	12	27%
COc1ccc(C2NC(=O)N(C)C3=C2C(=O)CC(C)(C)C3)cc1OC (stereo not given)	-9	-0.1	-5	13	11	2.8	-1.7	-2.8	-1	0%
Nc1nonc1-c1nc2ccccc2n1CC(=O)O	-4	0.4	-5	nt	nt	nt	nt	-1.1	-4	10%

Bioassay records deposited in PubChem by several laboratories.
